Mtb bLac sens: beta-lactam sensitization of Mtb H37Rv | M. tuberculosis H37Rv growth with meropenem, percent inhibition; hits of this screen are not shown here | inhibition, % at 25 µM | actives 0.27% (n = 330,000);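 active = about 74% or more and at least 40 points above the plate without the antibiotic, then above 30% in a dose series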;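 also: growth measured after seven days incubation then overnight dye step; 0% = bacteria only wells and 100% = bacteria with antibiotic; twin plates without the antibiotic show which effects depend on it; some results filed as inactive read as strong as hits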
RecA intein inh: Mtb RecA intein splicing inhibition | cell-free RecA intein splicing, fluorescence | inhibition, %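 (about 9 µM by stock and volumes)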 | actives 0.75% (n = 290,000) | AID 2221; in the data active = inhibition above about 30%;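 also: 0% = vehicle wells and 100% = reference inhibitor control wells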
Target sequence (P9WHJ3 whole entry, looked up): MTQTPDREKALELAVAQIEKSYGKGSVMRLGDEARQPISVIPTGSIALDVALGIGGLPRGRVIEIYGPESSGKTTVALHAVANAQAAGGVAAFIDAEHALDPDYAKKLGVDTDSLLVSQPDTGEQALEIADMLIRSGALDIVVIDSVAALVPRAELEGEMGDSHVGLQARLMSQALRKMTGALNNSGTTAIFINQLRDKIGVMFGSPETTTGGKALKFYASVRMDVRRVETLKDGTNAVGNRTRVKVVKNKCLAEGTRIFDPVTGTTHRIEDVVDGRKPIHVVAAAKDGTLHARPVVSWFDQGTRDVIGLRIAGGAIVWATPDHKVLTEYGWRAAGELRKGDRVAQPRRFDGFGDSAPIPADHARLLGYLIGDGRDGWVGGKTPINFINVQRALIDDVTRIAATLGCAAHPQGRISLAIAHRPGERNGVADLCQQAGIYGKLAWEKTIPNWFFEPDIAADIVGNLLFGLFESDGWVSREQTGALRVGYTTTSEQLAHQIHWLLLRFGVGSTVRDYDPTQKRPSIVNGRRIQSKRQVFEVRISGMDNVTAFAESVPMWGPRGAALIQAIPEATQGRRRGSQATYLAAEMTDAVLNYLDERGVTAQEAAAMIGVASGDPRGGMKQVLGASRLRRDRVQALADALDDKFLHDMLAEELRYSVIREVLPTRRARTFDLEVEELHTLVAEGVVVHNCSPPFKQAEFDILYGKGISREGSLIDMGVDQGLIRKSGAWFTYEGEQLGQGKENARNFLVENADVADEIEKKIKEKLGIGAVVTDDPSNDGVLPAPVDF
Mtb H37Rv: M. tuberculosis H37Rv growth inhibitors, H37Rv strain (AID 1626) | M. tuberculosis H37Rv growth inhibition; higher % means a stronger effect | inhibition, % at 10 µM; hits with a dose series show IC50 in µM | actives 0.95% (n = 220,000);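 active = confirmed in a dose series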;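 also: bacteria incubated seven days before Alamar blue readout; 0% = bacteria only wells and 100% = bacteria with antibiotic wells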
YopH inh: blocks Yersinia enterocolitica YopH tyrosine phosphatase. actives 0.16% (n = 140,000). fluorescence Ex485/Em525. inhibition, %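 (about 10 µM by stock and volumes)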;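 active = inhibition of 50% or more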;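 also: controls were vehicle for no effect and minimum signal wells for full effect; inactives centre near -20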
Arbovirus anti: blocks arbovirus infection. inhibition, % at 10 µM. arbovirus infection cell-based antiviral screen. AID 1251. actives 0.37% (n = 200,000);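 active = inhibition from about 30%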;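 also: bluetongue infection of BSR cells; cell survival read as ATP light after 72 h; 0% = infected wells without compound and 100% = uninfected wells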
Arbovirus anti repeat: recorded beside Arbovirus anti, whose call it bears; inhibition, %; measured here: 10K subset replicate screen; many hits read low in the repeat;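 first of two repeat runs on a subset; 0% = infected and 100% = uninfected wells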
Active calls of the source: *; x = no result given. Only part of the results is shown. The share of hits here may be higher or lower than overall.

SMILES	Mtb bLac sens	RecA intein inh	Mtb H37Rv	YopH inh	Arbovirus anti	others
Cc1ccccc1C(=O)NC1CCN(Cc2nnnn2C(C)(C)C)CC1	3	-0.4	0%	x	1
O=C(/C=C/c1ccco1)OCn1nnc2ccccc2c1=O	100	5.7	-4%	x	1
O=C1Nc2cc(S(=O)(=O)N3CCCC3)ccc2N2CCCC12 (stereo not given)	-2	-96	0%	-9	7
Cc1nnc(SCC(=O)N(Cc2ccccc2)C(C)C)n1-c1ccccc1	-4	-5.5	4%	-7	-3
C#CCOCCOCCOCCNc1nc(N2CCN(C(=O)Cn3cc(CCCN=C(N)N)nn3)CC2)nc(N2CCN(C(=O)[C@H](C(C)C)n3cc(CCO)nn3)CC2)n1	-7	0.1	-8%	-9	1
Cc1ccc(Sc2ccc(CN3CCCC3)cc2[N+](=O)[O-])cc1	5	7.4	9%	x	1
C/C=C/C(=O)N1CC2(CC(c3cccc(NC(=O)/C(C)=C/C)c3)=NO2)C[C@H]1C(N)=O (stereo not given in full)	-6	0.5	-4%	x	x
O=C(NC12CCC(O)C(SC1)/C2=N/O)c1ccccc1 (stereo not given)	-2	-2.6	-10%	-20	2
O=C(COC(=O)c1ccccc1-n1cnnn1)c1ccc(Br)cc1	-1	-0.5	x	x	x
Cc1c(NC(=O)c2ccc3c4c(cccc24)CC3)c(=O)n(-c2ccccc2)n1C	98	-0.6	62%	-25	1
Cc1ccc(C)c(NC(=O)CN(C)C(=O)/C=C/c2ccco2)c1	2	-2.5	-2%	x	-2
CC1(C)Cc2nc(-c3ccccc3)nc(SCC(O)CO)c2CO1 (stereo not given)	-3	1.5	5%	x	x
COc1cc(OC)c(C2C(C#N)=C(N)OC3=C2C(=O)CC(C)C3)cc1OC (stereo not given)	18	-1.9	-3%	-42	4
Cc1ccc(C)c(NC(=S)NCCc2ccc(S(N)(=O)=O)cc2)c1	-3	0.0	0%	-36	x
O=c1c2ccccc2nnn1Cc1cccc2ccccc12	4	4.4	-6%	x	-7
Cc1ccn2c(=O)nc(SCC(=O)NCc3ccc4c(c3)OCO4)nc2c1	-10	-0.8	x	x	x
CC1=NN(c2ccccc2)C(=O)/C1=C/c1ccc(-c2ccc(C)c(C(=O)O)c2)o1	15	3.5	x	x	x
Cc1cc2cc(CCNC(=O)CC(C)(C)C)c(=O)[nH]c2cc1C	-4	x	-1%	22	-5	Arbovirus anti repeat=3
COc1cc(C(=O)Nc2nccs2)c(Br)c(OC)c1OC	-2	4.2	-8%	-27	-18
COc1ccc(S(=O)(=O)N2CCN(S(=O)(=O)c3ccc4c(c3)OCCO4)CC2)cc1C	x	0.0	x	-23	6

Next part, overlapping the part above by two compounds.
SMILES	Mtb bLac sens	RecA intein inh	Mtb H37Rv	YopH inh	Arbovirus anti	others
COc1cc(C(=O)Nc2nccs2)c(Br)c(OC)c1OC	-2	4.2	-8%	-27	-18
COc1ccc(S(=O)(=O)N2CCN(S(=O)(=O)c3ccc4c(c3)OCCO4)CC2)cc1C	x	0.0	x	-23	6
Cc1ccc(N/C=C(\[N+](=O)[O-])S(=O)(=O)c2ccccc2)cc1	-2	3.8	1%	x	7
O=c1[nH]nc(Cc2ccc(-c3cccc(Cl)c3)o2)c2ccccc12	2	0.1	7%	-2	1
COc1ccc(-c2c(-c3ccccc3OC)sc3ccccc23)cc1OC	50	18	x	x	x
Cc1ccc(C(=O)Nc2ccccn2)cc1S(=O)(=O)N1CCOCC1	-3	1.7	x	x	x
COCCNC(=O)CN(C(=O)CCC(=O)Nc1ccccn1)c1cc(C)ccc1C	-29	-1.0	x	x	x
CCOC(=O)C1=C(COC(=O)c2ccc(Cl)cc2[N+](=O)[O-])NC(=O)NC1C (stereo not given)	0	-0.4	x	x	x
CC1CCN(CCc2nc3cc(NC(=O)Nc4ccccc4)ccc3n2C)CC1	4	1.0	-5%	2	-13
CCC(=NCCc1ccccc1)c1c(O)n(C)c(=O)n(C)c1=O	-11	1.0	1%	x	x
O=C(O)CSc1nnc(CSc2nc3ccccc3s2)n1-c1ccccc1	0	0.6	-10%	x	2
CC(C)[C@@H]1NC(=O)c2cc([N+](=O)[O-])cc(I)c2NCC[C@@H](C(N)=O)NC(=O)[C@H](CO)NC1=O	x	x	-11%	20	-12
Cc1cc(C)c(-c2cc(C)nc3ncnn23)c(C)c1	-3	0.1	-3%	x	5
O=C1c2cccc3cccc(c23)C(=O)N1c1ccccn1	-5	0.5	2%	x	17
CCOC(=O)N/N=C\c1ccc(OC/C=C/c2ccccc2)c(OC)c1	1	0.0	x	x	x
Cc1ccc(-c2nn(-c3ccccc3)cc2CN(C)C(=O)CCC(=O)O)cc1C	-7	4.7	8%	x	3
Cc1cnc(NC(=O)CSc2nnc(N)s2)s1	0	-1.4	4%	x	7
O=C(NCCCn1ccnc1)C1CC2CCC1C2 (stereo not given)	15	-2.4	6%	17	5
CC1(C)Cc2cccc(OCC(=O)N3CCN(S(=O)(=O)c4ccccc4F)CC3)c2O1	-3	1.0	4%	-3	2
O=C(COc1ccc(OCc2ccccc2)cc1)NN=C1CCCC1	9	-0.4	8%	x	1
Cc1ccc2c(c1)-c1ncc(C(=O)c3cc(Br)ccc3O)cc1CO2	16	5.1	15%	x	6
O=C(Nc1cc(Cl)ccc1N1CCOCC1)c1ccc2c(c1)OCCO2	10	0.3	0%	x	17

The final 6 compounds of the part above open the next one.
SMILES	Mtb bLac sens	RecA intein inh	Mtb H37Rv	YopH inh	Arbovirus anti	others
Cc1cnc(NC(=O)CSc2nnc(N)s2)s1	0	-1.4	4%	x	7
O=C(NCCCn1ccnc1)C1CC2CCC1C2 (stereo not given)	15	-2.4	6%	17	5
CC1(C)Cc2cccc(OCC(=O)N3CCN(S(=O)(=O)c4ccccc4F)CC3)c2O1	-3	1.0	4%	-3	2
O=C(COc1ccc(OCc2ccccc2)cc1)NN=C1CCCC1	9	-0.4	8%	x	1
Cc1ccc2c(c1)-c1ncc(C(=O)c3cc(Br)ccc3O)cc1CO2	16	5.1	15%	x	6
O=C(Nc1cc(Cl)ccc1N1CCOCC1)c1ccc2c(c1)OCCO2	10	0.3	0%	x	17
COc1cccc2sc(=NC(=O)CCS(=O)(=O)c3ccc(C)cc3)n(C)c12	-3	-0.5	x	x	x
O=C1C2C3C=CC(CC3)C2C(=O)N1c1ccc(Br)cc1[N+](=O)[O-] (stereo not given)	-9	-1.4	x	x	x
O=C(CN1CCN(c2nc(-c3ccc(Cl)cc3)cs2)CC1)NCc1ccco1	91	6.6	-7%	13	6
C/C(=N/Nc1nc(-c2ccccc2)c(CC(=O)O)s1)c1ccccc1	x	12	0%	x	x
N#CCSc1nc2ccccc2c(=O)n1C1CCCCC1	10	0.7	-4%	x	9
Cc1cccc2cc(CN(Cc3cccnc3)C(=O)c3ccncc3)c(=O)[nH]c12	12	-2.3	1%	-33	6
CCOc1ccccc1C1C(C#N)=C(N)Oc2cc(N)ccc21 (stereo not given)	-2	-25	8%	-22	-8
NC(=O)C1=C[C@@H](c2csc3ccccc23)C[C@@H](OCCCCO)O1	0	4.0	-5%	x	-6
Cc1nn(C)cc1S(=O)(=O)Nc1ncccn1	-3	-6.1	x	x	x
CN(C)CCn1c(=N)n(CC(O)c2ccc(Cl)c(Cl)c2)c2ccccc21 (stereo not given)	-5	0.9	6%	x	-40
CCOc1ccc(CNC(=O)c2ccc(Sc3ccc(C)cc3)c(NC(C)=O)c2)cc1	-5	7.8	1%	-18	-15
O=C(O)c1cc2nccc(-c3ccco3)n2n1	5	-40	x	x	x
O=C(Nc1cccc(Cl)c1)C1C2CCC3C(CCC21)C3(Cl)Cl (stereo not given)	0	3.5	4%	-14	-33
CN1CCN(Cc2ccc(Br)s2)CC1	2	-0.3	-13%	-34	3
Cc1ncn(C23CC4CC(CC(C4)C2)C3)n1	-1	-6.7	6%	-23	-3
Cc1cc(C)c(C(=O)N2CCC(N3CCC(C(=O)NC(C)C)CC3)CC2)o1	-2	-4.4	x	x	x
CC1=[N+]([O-])C(C)(C)N(O)C1(C)C	0	-1.5	0%	x	x
CC(=O)c1cccc(NC(=O)NC2CCCc3ccccc32)c1 (stereo not given)	-7	-1.7	1%	x	-9
O=C1COc2ccc(C(=O)COC(=O)CCc3ccc(S(=O)(=O)N4CCOCC4)cc3)cc2N1	-3	-0.8	-9%	-69	0
CCCOc1ccc(-c2nc(OCC)c3ccccc3n2)cc1	23	0.6	4%	-10	-2
CC(=O)OCC1OC(OCc2cn(C[C@H]3CC[C@H](Cn4cc(COC5OC(COC(C)=O)C(OC(C)=O)C(OC(C)=O)C5OC(C)=O)nn4)O3)nn2)C(OC(C)=O)C(OC(C)=O)C1OC(C)=O (stereo not given in full)	-3	-3.4	x	x	x
COCCn1c(-c2ccccc2)cnc1N	-7	-4.0	-2%	-41	-8
CCOn1c(=O)c(=O)n(O)c2ccccc21	0	0.1	5%	x	-5
N#Cc1c(Nc2ccc(Cl)cc2)s[nH]c1=O	4	0.1	-11%	x	x
CC(=O)Nc1ccccc1NC(=O)C/C(C)=N/NC(=O)Cc1cccc2ccccc12	-1	0.6	x	x	x
c1ccc(Oc2nc(NCc3ccco3)nc(NCc3ccco3)n2)cc1	-1	-1.1	16%	-57	1
O=C(CN1CCN(Cc2ccccc2)CC1)NNC(=O)c1ccc(Cl)cc1	-1	-1.9	x	x	x
O=C(NNC(=O)c1ccccc1F)c1ccc(-n2cncn2)c([N+](=O)[O-])c1	-4	-4.4	x	x	x
Cc1cccc(CCN=C(N)NS(=O)(=O)c2ccccc2)c1	2	4.0	x	x	x
O=C(O)/C=C/c1ccc(Cn2ccnc2)cc1	-9	-3.7	-7%	x	x

Entries above with a Cl atom (8):
SMILES	Mtb bLac sens	RecA intein inh	Mtb H37Rv	YopH inh	Arbovirus anti	others
O=c1[nH]nc(Cc2ccc(-c3cccc(Cl)c3)o2)c2ccccc12	2	0.1	7%	-2	1
CCOC(=O)C1=C(COC(=O)c2ccc(Cl)cc2[N+](=O)[O-])NC(=O)NC1C (stereo not given)	0	-0.4	x	x	x
O=C(Nc1cc(Cl)ccc1N1CCOCC1)c1ccc2c(c1)OCCO2	10	0.3	0%	x	17
O=C(CN1CCN(c2nc(-c3ccc(Cl)cc3)cs2)CC1)NCc1ccco1	91	6.6	-7%	13	6
CN(C)CCn1c(=N)n(CC(O)c2ccc(Cl)c(Cl)c2)c2ccccc21 (stereo not given)	-5	0.9	6%	x	-40
O=C(Nc1cccc(Cl)c1)C1C2CCC3C(CCC21)C3(Cl)Cl (stereo not given)	0	3.5	4%	-14	-33
N#Cc1c(Nc2ccc(Cl)cc2)s[nH]c1=O	4	0.1	-11%	x	x
O=C(CN1CCN(Cc2ccccc2)CC1)NNC(=O)c1ccc(Cl)cc1	-1	-1.9	x	x	x

Bioassay records from PubChem.
